VACV mCherry inh – inhibitors of vaccinia virus infection (mCherry reporter signal); Vaccinia virus mCherry reporter infection, fluorescence; about a quarter of the inactives have no number; Potency, µM (highest dose often 36.5 µM), without a hit: top-dose activity change, negative = inhibition, most hits filed as inhibitors; actives 0.63% (n = 310,000); AID 720579; active = well fitted inhibition curve with a large enough effect; inconclusive = small, poorly fitted or top-dose-only effect; inactive = no such curve, though single readings can be large or run the other way; tested in A549 cells; note: nearly all actives have a fitted effect of over 35% in size; inactives centre near -10
Vaccinia Venus – inhibitors of vaccinia virus (Venus reporter); Vaccinia virus Venus reporter expression, fluorescence; Potency, µM (highest dose often 36.5 µM), for inactives: at the top dose activity change, negative = inhibition, usual class: inhibitors; actives 0.46% (n = 330,000); AID 720580; active means well fitted inhibition curve with a large enough effect; inconclusive means small, poorly fitted or top-dose-only effect; inactive means no such curve, though single readings can be large or run the other way; tested in A549 cells; note: nearly all actives have a fitted effect of over 30% in size; inactives centre near -10
Numbers without * were called inactive; i = inactive; ? = inconclusive; nt = no result given; & = joins results of further samples; [ ] = remark or other dose. % is set by controls: 0 for no effect and ±100 for the full control effect; potency is the fitted concentration of half-maximal effect.

smiles	VACV mCherry inh	Vaccinia Venus
O=C(Nc1cccc([N+](=O)[O-])c1)Nc1ccc2c(c1)CCC2	-28.1%	-27.2%
O=C(Nc1ccc(Cl)cc1)Nc1csc([N+](=O)[O-])c1	?	?
CN(C(=O)c1ccc(NC(=O)Cc2cccc(NC(=O)C3CCCN(C(=O)CCc4ccccc4)C3)c2)cc1)C1CC1 (stereo not drawn)	-19.7%	-5.6%
CC1(OCON)CCCc2ccccc21 (stereo not drawn)	-12.0%	-17.4%
Cc1ccc(CNC(=O)c2ccc3c(c2)nc2n3CCOC2)cc1	-4.4%	1.1%
CC(CC(=O)N(C)c1c(N)n(Cc2ccccc2)c(=O)[nH]c1=O)c1ccccc1 (stereo not drawn)	-15.0%	-14.8%
O=C(CCN1C(=O)C2C3C=CC(C3)C2C1=O)NCCc1ccccc1 (stereo not drawn)	-19.7%	-4.3%
Clc1cccc(N2CCN(CCCN3CCN(c4ccccc4)CC3)CC2)c1	?	-8.3%
Cc1cc(C)c(NC(=O)Cn2nnc(C(=O)NCc3ccc4c(c3)OCO4)c2N)c(C)c1	-0.5%[7.34 µM]	15.8%[7.34 µM]
Cc1ccc(-c2c(C)sc3nc(CN4CCN(CC(=O)NC5CC5)CC4)[nH]c(=O)c23)cc1	?	-26.9%
O=C(NC1CCCCCC1)C(=S)NCc1ccccc1	i	-5.7%
O=C(C1CC(c2ccc(F)cc2)=NO1)N1CCC2(CC1)OCCO2 (stereo not drawn)	-6.1%	-7.6%

(list continues)
smiles	VACV mCherry inh	Vaccinia Venus
CC1=NN(C(=O)CCc2ccccc2)C(c2ccccc2)C1 (stereo not drawn)	-1.0%	-7.9%
CC(CNC(=O)C1CCCCC1)NC(=O)C1CCCCC1 (stereo not drawn)	2.6%	2.0%
CC(=O)Nc1ccc(C2=NOC(C)(C)C(=O)N2Cc2cccc(C#N)c2)cc1	27.0%	-6.1%
Cc1ccc(C(=O)CCC(=O)Nc2ccccc2C)c(C)c1	-13.5%	-15.6%
O=C(NCCCCl)C1CC(=O)N(CCc2ccc(F)cc2)C1 (stereo not drawn)	i	-5.4%
Cc1ccc2occ(-c3cc(-c4ccc(Cl)cc4)nc4c3COc3ccccc3-4)c(=O)c2c1	-1.5%	-3.4%
CN(C)/C=C/C(=O)c1ncc(C(F)(F)F)cc1Cl	-2.4%	-13.8%
O=C1C2C3C=CC(CC3)C2C(=O)N1c1ccc([N+](=O)[O-])cc1 (stereo not drawn)	i	-8.4%
CCOCCCNC(=O)C(c1ccc(C)cc1)N(Cc1ccc2c(c1)OCO2)C(=O)c1ccccn1 (stereo not drawn)	-1.3%	-10.1%
CN1C(=O)C2(C(C#N)=C(N)Oc3n[nH]c(-c4ccc(Cl)cc4)c32)c2ccccc21 (stereo not drawn)	i	-13.4%
Cc1ccc(N2C(=O)C3CC3C2=O)cc1 (stereo not drawn)	i	-5.2%
COc1ccc(-c2nc3n(n2)C(c2ccccc2Cl)C(C(N)=O)=C(C)N3)cc1 (stereo not drawn)	3.8%	15.8%

Further structures follow:
smiles	VACV mCherry inh	Vaccinia Venus
COc1ccc(S(=O)(=O)NCC(=O)N(CC(=O)NCc2ccco2)Cc2ccccc2)cc1	-9.6%	5.6%
CCOC(=O)Nc1nnc(-c2ccc(OC)cc2)s1	i	-14.2%
O=C(Nc1cn(-c2ccccc2)nc1-c1cccs1)c1ccco1	nt	-26.5%
COc1ccc(-n2c(=S)[nH]c3c(oc4ccccc43)c2=O)cc1	-9.4%	-1.1%
COc1ccc(OC(=O)c2nc(SCc3ccccc3F)ncc2Cl)cc1	5.5%	1.0%
Cc1nn(-c2ccccn2)c2c1-c1nc(N)ncc1CC2	-25.8%	-10.9%
CCc1cccc2c(C(O)(c3c[nH]c4c(CC)cccc34)c3c[nH]c4c(CC)cccc34)c[nH]c12	-11.0%	7.2%
CN(C)CCCNC(=O)CC(c1ccccc1)c1ccccc1O (stereo not drawn)	nt	-4.8%
Cc1ccc(C)c(NC(=O)CN2C(=O)CCc3cc(S(=O)(=O)N4CCCCC4)ccc32)c1	-12.2%	-5.8%
COc1ccc(NC(=O)c2ccccc2NS(C)(=O)=O)cc1OC	-13.6%[1.46 µM]	-1.4%
COC(=O)NCc1ccc(Cl)c(Cl)c1	nt	-21.4%
CCOC(=O)c1ccc(NC(=O)c2nc[nH]c2C(=O)NCCCCCNC(=O)OC(C)(C)C)cc1	?	?

(list continues)
smiles	VACV mCherry inh	Vaccinia Venus
CCC1c2ccc(C)n2CCN1C(=O)Nc1ccc(F)cc1 (stereo not drawn)	nt	-5.9%
CN(C)C1(CNC(=O)c2ccc(Cl)c(S(=O)(=O)NCc3ccco3)c2)CCCCC1	-16.2%	-5.0%
c1ccc2c(c1)[nH]c1c(NCC3CCCO3)ncnc12 (stereo not drawn)	?	-29.6%
c1ccc(C2CNCc3ccccc32)cc1 (stereo not drawn)	-15.8%	-2.1%
CSc1nc2c(cnn2-c2ccc(C)c(C)c2)c(=O)[nH]1	-0.1%	-13.1%
O=C(Cc1ccccc1)NC1(Cc2ccc(O)cc2)CCCCC1	?	-7.3%
O=c1cc(-c2ccc(O)c(O)c2)oc2cc(O)c([C@@H]3O[C@H](CO)[C@@H](O)[C@H](O)[C@H]3O)c(O)c12	i	-0.7%
CSc1ccc(S(=O)(=O)N2CCC(C(=O)N3CCOCC3)CC2)cc1	-13.9%	-3.0%
Cc1ccc(CCNC(=O)c2ccc3c(=O)n(-c4ccc(C)cc4)c(=O)[nH]c3c2)cc1	8.6%	9.4%
CCNC(=O)C1(C)CCCN(C(=O)c2sc(-c3ccccc3)nc2C)C1 (stereo not drawn)	43.1%[activator]	3.9%
Nc1c(-c2ccccc2)nnn1Cc1ccccc1	i	-18.5%
CC(C)NC[C@H](O)COc1cccc2[nH]ccc12	-10.8%	-7.5%&-19.5%

The list continues.
smiles	VACV mCherry inh	Vaccinia Venus
CC(=O)c1cc(-c2ccccc2)n(CC(=O)Nc2ccc(C)c(C)c2)c1C	-19.4%	?
CCc1cccc(C)c1NC(=O)Cn1ncc2c3ccccc3n(Cc3ccccc3)c2c1=O	-4.8%	-5.3%
CCOC(=O)C1CCCCN1Cc1cc(OC)ccc1OC (stereo not drawn)	i	0.0%
CCCCC(=O)Nc1nnc(S(=O)(=O)N2CCCc3ccccc32)s1	2.0%	-2.4%
Cc1onc(-c2ccccc2)c1C(=O)NC(=S)NNC(=O)c1cccnc1	-13.5%	-1.6%
O=C(CCC1CCCN(C(=O)c2ccc3cc[nH]c3c2)C1)NCc1ccc(F)c(F)c1 (stereo not drawn)	-7.0%	-16.3%
CC1(C(=O)Nc2cccc3cccnc23)CCN1C(=O)CCC1CCCC1 (stereo not drawn)	i	-12.6%
CCN(CC)c1ccc(NC(=O)COC(=O)Cc2ccsc2)cc1	-9.5%	-7.1%
COc1ccc(NC(=O)N(Cc2ccc(C)cc2)Cc2ccccn2)c(OC)c1	-2.8%	?
O=C(Cn1c(=O)cnc2ccccc21)N1CCN(S(=O)(=O)c2ccccc2Br)CC1	-23.0%	-21.9%
Nc1ccc2nc(-c3ccccn3)[nH]c2c1	nt	-18.1%
COc1ccc(C(NC(=O)C2CCCCC2)c2c(O)ccc3ccccc23)cc1 (stereo not drawn)	?	?

(further entries)
smiles	VACV mCherry inh	Vaccinia Venus
Cc1ccccc1OCC(=O)NCC(c1ccc(Cl)cc1)N1CCCCC1 (stereo not drawn)	-10.0%	-10.7%
O=C(Nc1nnc(N2CCCCCC2)s1)Nc1ccccc1C(F)(F)F	-16.5%	-10.6%
CCC(CO)Oc1cc(NCc2ccccc2)c2ncn(C3CCCC3)c2c1 (stereo not drawn)	-7.4%	-21.2%
Cc1cc(C)c2sc(N)nc2c1	-16.3%	-27.3%
COc1ccc(NC(=O)Nc2ccccc2)cc1S(=O)(=O)N1CCCCC1	-25.8%	-19.1%
COc1cc(/C=N/N=C(\N)c2nonc2N)cc(OC)c1O	-18.5%	-2.8%
COc1ccc(C(=O)C2CCCN(Cc3cnc(N4CCOCC4)s3)C2)cc1F (stereo not drawn)	-4.3%	-3.1%
COc1cc2c(cc1NCc1ccccn1)oc1ccccc12	-16.6%	-8.4%
CCc1cccc2c(C(=O)COC(=O)c3cccc(S(=O)(=O)N(C)C4CCCCC4)c3)c[nH]c12	-4.4%	-9.1%
Cc1nc(CC(=O)Nc2ccc(N(C)C)cc2)cs1	-0.7%	-1.1%
CC1CCCN(S(=O)(=O)c2ccc(N(C(=O)c3cnccn3)C(C(=O)NC3CCCCC3)c3cccs3)cc2)C1 (stereo not drawn)	-25.9%	-22.2%
CC(C)c1ccc(NC(=O)CSC2=Nc3ccccc3C3=NC(CC(=O)NCCc4ccccc4)C(=O)N23)cc1 (stereo not drawn)	-17.9%	-11.8%

In the list so far, 2 contain a cyano group.
smiles	VACV mCherry inh	Vaccinia Venus
CC(=O)Nc1ccc(C2=NOC(C)(C)C(=O)N2Cc2cccc(C#N)c2)cc1	27.0%	-6.1%
CN1C(=O)C2(C(C#N)=C(N)Oc3n[nH]c(-c4ccc(Cl)cc4)c32)c2ccccc21 (stereo not drawn)	i	-13.4%

Going on with the list.
smiles	VACV mCherry inh	Vaccinia Venus
COc1ccc(NC(=O)CSc2nc3[nH]ncc3c(=O)n2-c2ccccc2OC)cc1OC	-14.4%	-15.1%
Cn1ncc(Br)c1C(=O)NC1CCCCCCC1	i	-1.2%
COc1ccc(OCc2nnc(SCC(=O)N3C(C)CCCC3C)o2)cc1 (stereo not drawn)	-1.5%	-6.3%
COc1ccccc1NC(=O)c1ccc(CN(c2cc(Cl)ccc2C)S(=O)(=O)c2ccccc2)cc1	nt	-3.1%
Cc1c(C(=O)CN2CCOCC2)[nH]c2ccccc12	nt	-1.4%
CCOc1cc(N2CCOCC2)c(OCC)cc1NC(=O)c1c(-c2ccccc2Cl)noc1C	-22.1%	-9.8%
CC1CCC(NC(=O)c2[nH]c(C(F)(F)F)nc2-c2ccccc2)CC1 (stereo not drawn)	i	-12.7%
COc1cccc(-n2c(=O)c3cc(OC)c(OC)cc3n(CC(=O)Nc3cc(C)[nH]n3)c2=O)c1	-2.6%	-2.1%
Cc1ccc(S(=O)(=O)N2CCC(Oc3cccc(C(F)(F)F)c3)CC2)cc1	-13.8%	-28.1%
COCCCNC(=O)c1ccc(Cn2c(=O)c3ccccc3n(Cc3ccc(C)cc3)c2=O)cc1	26.3%	26.1%
COc1ccc(NC(=O)C2CCCN2c2ccc(OC)c(OC)c2)cc1OC (stereo not drawn)	-8.6%	-4.8%
CC(C)CC(NC(=O)OCC1c2ccccc2-c2ccccc21)C(=O)O (stereo not drawn)	-1.8%	-10.1%

(further entries)
smiles	VACV mCherry inh	Vaccinia Venus
N#C/C(=C(/O)CN1CCOCC1)c1nc2ccccc2s1	nt	-26.5%
Fc1ccc(C[n+]2csc3ccccc32)cc1	-11.3%	-0.8%
Oc1ccc(-c2csc(Nc3ccc4c(c3)OCO4)n2)c(O)c1	?	?
COCC(=O)N(Cc1ccc(OC)cc1)Cc1nc2ccccc2c(=O)[nH]1	i	-15.3%
CCCN1CNC(=S)N(CCc2ccccc2)C1	-13.9%	-10.8%
Cc1ccc(C(=O)N2NC(c3ccc(F)cc3)C3C(=O)N(c4ccc(C)cc4)C(=O)C32)cc1 (stereo not drawn)	-3.8%	-3.7%
O=C(CSc1nc(N2CCCCC2)nc(N2CCCCC2)n1)c1ccccc1	-14.8%	-12.1%
O=C(c1ccccc1)c1ccc2nc(N3CCN(c4ccccc4)CC3)c3nncn3c2c1	?	-22.2%
O=C(Nc1cc(Cl)cc(Cl)c1)c1cc(S(=O)(=O)N2CCC3(CC2)OCCO3)ccc1F	1.0%	-6.1%
O=C(COC(=O)c1cnccn1)c1ccc(Cl)cc1	i	4.8%
Cc1ccc(NC(=O)c2cc(S(=O)(=O)N3CCCCC3)cs2)cc1	-28.4%	?
COc1cc(-c2ccno2)ccc1S(=O)(=O)N1CCN(c2ccccc2)CC1	-4.2%	-6.8%

Further results follow:
smiles	VACV mCherry inh	Vaccinia Venus
CCS(=O)(=O)N1CCc2cc(C(=O)NCc3ccccc3Cl)ccc21	-6.4%	-2.3%
O=C1c2ccc3c4c(ccc(c24)C(=O)N1c1cccc(O)c1)CC3	-4.0%	-10.8%
COC(=O)Cc1ccc(NC(=O)C(c2ccccc2)c2ccccc2)cc1	i	-10.0%
CCc1ccc(-c2cc(C)no2)cc1S(=O)(=O)NCc1ccc(OC)c(OC)c1	i	-12.6%
O=C(NCc1ccc(Cl)cc1)c1ccc(Br)o1	i	-21.5%
Nc1nnc(-c2cc3ccccc3oc2=O)s1	nt	-6.6%
CC1(C)C(c2cccs2)=[N+]([O-])C2(CCCCC/C2=N\NC(N)=S)N1O (stereo not drawn)	-15.0%[1.46 µM]	-15.6%
Cc1ccc2nc(-c3ccccn3)c(Nc3ccccc3C)n2c1	6.31µM*	?
COC1/C=C/C=C(\C)Cc2cc(O)c(Cl)c(c2)N(C)C(=O)CC(OC(=O)C(C)C)C2(C)OC2C(C)C2CC1(O)NC(=O)O2 (stereo not drawn)	-3.1%	?
O=C(COC(=O)Cc1ccccc1F)Nc1ccc2[nH]c(=O)[nH]c2c1	i	-3.5%
COC(=O)c1ccc(-c2noc(CN3CCCCC3c3nccn3C)n2)cc1 (stereo not drawn)	i	-1.2%
C=CCn1c(NC(=O)c2ccc(C)cc2)c(C#N)sc1=N	nt	-23.4%

Screening data deposited in PubChem by National Center for Advancing Translational Sciences (NCATS).
